# Bioassay records as filed in PubChem.
# gsp antag = antagonists of gsp mutant (McCune-Albright syndrome) | gsp-mutant cells, cAMP HTRF, 30 min; control for the full effect not named in the record | Potency, µM (doses to about 76.9 µM), for the others: top-dose activity change, negative = inhibition, most hits filed as inhibitors | 0.4% of 340,000 active | AID 624288; active = falling curve of any shape with a large fitted effect; inconclusive = falling curve, mostly with a smaller effect; inactive = flat or rising curve; cell line not stated here;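 also: intracellular cAMP measured with PDE inhibitor Ro 20-1724 present during compound exposure; potency is read from the fitted curve at half-maximal effect; % is scaled to controls: 0 for no effect and ±100 for the full control effect; nearly all actives have a fitted effect of over 65% in size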
#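 Cells in G418 medium, seeded 16-24 h, 37C; buffer exchange to DPBS + 1 mM CaCl2, 0.5 mM MgCl2, 0.05% BSA; cpds in DMSO + […] (300 uM stock), 30 min 37C; HTRF cAMP detection.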
# TRPML1 blocker = human mucolipin-1 channel inhibition. 0.02% of 390,000 active. activity change, negative = inhibition, % (no concentration beside the values). TRPML1-inducible cells, Ca2+ dye fluorescence, FDSS; stronger effect = lower value; inhibition of EC80 agonist-evoked calcium signal. Q9GZU1; in the data active means activity change below about -50%; inconclusive means about -30% to -50%; inactive means above about -30%;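 also: stimulus is agonist 54-4 at its EC80 concentration; % is scaled to controls: 0 for no effect and ±100 for the full control effect; compound concentration not given in the record; the text of the record puts the active cut at -80%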
#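 Calcium fluorescence in TRPML1-DL cells induced overnight with Tet: a 110 s read after compound pin addition, then a 110 s antagonist read after challenge with 54-4 at 4 uM final (EC80).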
# Sfp PPTase inh = Sfp phosphopantetheinyl transferase inhibition. Potency, µM, for inactives: max response, negative = inhibition, hits mostly inhibitors. 3.5% of 310,000 active. AID 1490. Q9F4F7. Biochemical Sfp PPTase activity, qHTS; active = well fitted inhibition curve with a large enough effect; inconclusive = small, poorly fitted or top-dose-only effect, or another doubt; inactive = no such curve, though single readings can be large or run the other way;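 also: the enzyme is Sfp with the accession as filed and its product quenches rhodamine fluorescence; potency is read from the fitted curve at half-maximal effect; 0% = enzyme reaction without inhibitor and -100% = no enzyme wells; top concentration of the series not given in the record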
#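 With Hepes-Na pH 7.6 buffer containing 10 mM MgCl2, Sfp (15 nM) modified BHQ-2-YbbR (12.5 uM) using rhodamine-CoA (5 uM). Two reads 30 minutes apart at 525/598 nm yielded each well's rate.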
# ClpP mod = qHTS Assay for Activators of ClpP; AID 651965, 2013; purified B. subtilis ClpP, FRET peptide cleavage, 20 min; Potency, µM (top dose mostly 57.5 µM), without a hit: top-dose activity change, negative = active; ATP-dependent Clp protease proteolytic subunit (Bacillus subtilis (strain 168)), P80244; 1.9% of 340,000 active; active = well fitted falling curve with a large enough effect; inconclusive = small, poorly fitted or top-dose-only effect; inactive = no such curve, though single readings can be large or run the other way; also: potency is read from the fitted curve at half-maximal effect; the source files actives as falling curves though it sought activators and does not explain the sign; nearly all actives have a fitted effect of over 65% in size; many hits overshoot -100%
# Target sequence (P80244 whole entry, looked up): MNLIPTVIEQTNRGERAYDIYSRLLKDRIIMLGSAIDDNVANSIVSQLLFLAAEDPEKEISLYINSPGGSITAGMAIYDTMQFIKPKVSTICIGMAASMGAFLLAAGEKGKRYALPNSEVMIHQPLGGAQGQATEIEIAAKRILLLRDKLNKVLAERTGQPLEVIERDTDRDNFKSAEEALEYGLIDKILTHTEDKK
#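 ClpP 10 microg/mL final, pH 8 Tris/KCl buffer with BSA, glycerol, Tween-20; compound pinned in; FRET-FV substrate; RT 20 min; Ex320/Em430; ΔFRET vs ADEP 5.8 microM, DMSO, no enzyme.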
# TRPV1 potentiator = potentiators of human vanilloid receptor 1 (TRPV1). potentiation, % at 8.33 µM. TRPV1-expressing cells, Fluo-8 calcium influx, capsaicin EC20 potentiation; host cell line not named in the record; control for the full effect not named in the record. 0.02% of 320,000 active. Q8NER1; active means potentiation above 80%; inconclusive means 30% to 80%; inactive means below 30%; also: 0% is about no effect
# Target sequence (Q8NER1 whole entry, looked up): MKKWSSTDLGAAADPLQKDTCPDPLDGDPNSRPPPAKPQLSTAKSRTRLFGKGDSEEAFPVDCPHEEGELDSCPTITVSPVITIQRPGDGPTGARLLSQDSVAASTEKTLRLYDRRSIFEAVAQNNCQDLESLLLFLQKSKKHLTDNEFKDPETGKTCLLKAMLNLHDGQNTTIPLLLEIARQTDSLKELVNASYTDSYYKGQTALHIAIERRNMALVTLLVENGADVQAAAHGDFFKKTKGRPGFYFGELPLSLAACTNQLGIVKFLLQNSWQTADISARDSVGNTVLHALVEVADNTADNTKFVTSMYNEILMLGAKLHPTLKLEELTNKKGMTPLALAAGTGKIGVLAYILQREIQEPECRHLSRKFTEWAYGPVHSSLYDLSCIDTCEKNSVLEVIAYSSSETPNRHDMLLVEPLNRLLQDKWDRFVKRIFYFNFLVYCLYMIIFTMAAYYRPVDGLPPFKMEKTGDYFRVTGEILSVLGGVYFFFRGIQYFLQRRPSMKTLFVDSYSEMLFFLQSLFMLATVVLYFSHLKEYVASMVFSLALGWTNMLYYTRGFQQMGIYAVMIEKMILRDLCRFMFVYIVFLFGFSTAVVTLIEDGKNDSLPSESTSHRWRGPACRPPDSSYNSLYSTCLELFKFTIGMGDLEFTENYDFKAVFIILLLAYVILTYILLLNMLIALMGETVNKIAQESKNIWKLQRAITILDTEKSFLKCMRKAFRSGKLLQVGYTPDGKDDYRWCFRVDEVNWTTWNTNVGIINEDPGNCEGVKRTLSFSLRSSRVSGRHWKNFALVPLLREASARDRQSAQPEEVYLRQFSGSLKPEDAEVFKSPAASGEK
#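 TRPV1-expressing cells were cultured overnight at 35.5C and loaded with Fluo-8 calcium dye for 40 to 90 min at room temperature. After a 10 s baseline, compound was added and calcium influx was read kinetically for 3 min (ex 480/em 520 nm).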
# Menin-MLL FL inh = inhibitors of human menin-MLL interaction, wild-type MLL peptide; Fluorescence polarization, fluorescein-MLL peptide displacement from menin; FP activity change, % at 61.4 µM; 290,000 tested, under 10 active; AID 1766; inconclusive = falling polarisation curve, or a change in total fluorescence; inactive = total fluorescence flat and polarisation flat or rising; no compound was filed as active; the % refers to the polarisation; negative = inhibition;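 also: % of control where 0% means no effect; inhibitors lower the polarisation; unlabelled MLL peptide was the positive control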
# gsp agonist = agonists of gsp mutant (McCune-Albright syndrome). gsp mutant cells, cAMP HTRF, 30 min; control for the full effect not named in the record. AID 624287. Potency, µM (top dose mostly 76.9 µM), for the others: at the highest dose activation (cAMP increase), hits mostly activators. 0.13% of 340,000 active; active = well fitted activation curve with a large enough effect; inconclusive = small, poorly fitted or top-dose-only effect, or another doubt; inactive = no such curve, though single readings can be large or run the other way; cell line not stated here;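 also: phosphodiesterase inhibitor Ro 20-1724 added with compounds to block cAMP breakdown; potency is read from the fitted curve at half-maximal effect; nearly all actives have a fitted effect of over 60% in size; about a fifth of the inactives were tested at one dose only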
#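 Cells stably selected in G418 were plated at 2000/well, grown 16-24 hr, then given compounds in DMSO with the PDE inhibitor […] (300 uM solution added) for 30 min at 37C; cAMP was read by HTRF.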
# Starred values were filed as active, the others as inactive; ? = inconclusive; . = no result given; & = joins results of further samples; [ ] = dose if it differs, or a comment. Rows were taken by chance. About 4.9% of those tested had a hit in this group.
SMILES,gsp antag,TRPML1 blocker,Sfp PPTase inh,ClpP mod,TRPV1 potentiator,Menin-MLL FL inh,gsp agonist
O=C(C1=C[C@@H]2[C@H]3C(=O)N(c4cccc(Cl)c4)C(=O)[C@H]3[C@@H](C(=O)c3ccc(Cl)cc3)N2C=C1)c1ccccc1,-13%,-4,-3%,.,9,?,-18%
O=C(O)c1ccccc1OCC1CCCO1 (stereo not given),8%,-10,2%,.,-1,-2.7,-5%
CCC1CCc2sc(C(=O)NCc3ccccn3)cc2C1 (stereo not given),-5%,5,2%,-3.8%,-19,.,7%
C[C@H](NS(=O)(=O)c1ccc(Cl)cc1)C(=O)OCC(=O)Nc1cc(S(=O)(=O)N2CCOCC2)ccc1Cl,-15%,-22,.,-3.5%,.,.,-3%
CC(=O)N1c2ccc(S(=O)(=O)N3CCCCC3)cc2CC1C(=O)Nc1ccccc1C(F)(F)F (stereo not given),-12%,19,12%,-2.6%,6,.,-12%
COc1cccc(C(=O)N(C)CC2CCN(CCc3cccc(C(F)(F)F)c3)CC2)c1,7%,.,-1%,-0.8%,?,0.5,-43%
Cc1nc(C)n(C(=O)N(c2ccccc2)c2ccccc2)n1,5%,-1,16%,-0.2%,0,3.4,19%
CCOC(=O)[C@H]1[C@H]2COc3ccc(Br)cc3[C@@H]2N2C(=O)CN(Cc3ccco3)C(=O)[C@@]12C,0%,17,.,1.6%,-5,.,-67%[inhibitor]
Cc1cc(NC(=O)CCC(=O)N(c2cccnc2)C(C(=O)NC2CCCC2)c2ccccc2)no1 (stereo not given),11%,38,0%,-2.0%,11,2.2,-38%[inhibitor]
O=C(OCc1c(-c2ccccc2)ncc2ccccc12)c1cccs1,-15%,3,.,?,.,.,.
Cc1c(N(C)C)c(=O)n(-c2ccccc2)n1C,1%,-5,7%&10%,0.1%&-0.8%,4,1.1,.
Cc1cccc(NC(=O)C2CCC(CNC(=O)[C@@H]3Cc4ccccc4CN3)CC2)c1 (stereo not given in full),7%,-20,7%,1.3%,1,.,34%
COc1ccc(CCNC(=O)COC(=O)c2cnc(C)cn2)cc1,1%,1,25%,-1.4%,-11,-0.5,28%
COc1ccccc1N1CCN(C(CNC(=O)c2ccco2)c2cccnc2)CC1 (stereo not given),-15%,-2,18%,1.5%,?,0.8,3%
CCCOc1ccccc1C1C(C(=O)OC)=CN(C(C)C)C=C1C(=O)OC,-13%,22,8%,16µM*,-14,3.3,-37%[inhibitor]
CC(=O)Nc1ccc2c(c1)[nH]c(=O)c1ccccc12,3%,-8,.,32µM*,.,.,-19%
CCN(C(=O)COC(=O)c1cc(S(=O)(=O)N(C)C)ccc1Cl)C1CCS(=O)(=O)C1 (stereo not given),10%,13,.,-1.7%,1,.,-24%
COc1ccccc1CCC(=O)Nc1ccc(C)cc1Cl,-43%,0,7%,.,-27,-0.7,-7%[15.4 µM]
S=C(NCCc1ccccc1)NCc1ccccc1Cl,-3%,17,1%,-1.7%,-13,4.7,37%
CCC(=O)NC(=S)Nc1ccc(NC(=O)COc2ccc([N+](=O)[O-])cc2)cc1,-23%,-6,13%,2.4%,3,-4.0,-25%
CC(C)Cn1c(SCC(=O)Nc2cccc(S(N)(=O)=O)c2)nc2ccccc2c1=O,-13%,2,-8%,-1.7%,-4,1.6,-15%[15.4 µM]
Cc1cc(C)n(-c2nc3c(c(=O)[nH]c(=O)n3C)n2CC(O)COc2ccccc2)n1 (stereo not given),1%,-10,7%,-9.0%,9,5.4,12%
CCN1CCN(C(=O)C2CCN(S(=O)(=O)c3ccc(SC)cc3)CC2)CC1,10%,27,18%,.,-7,-0.7,0%[15.4 µM]
COc1cccc(C#Cc2ccc3c(c2)O[C@H](CN(C)C)[C@@H](C)CN([C@@H](C)CO)S3(=O)=O)c1,.,10,.,4.1%,.,.,-31%[inhibitor]
Cc1c(C(=O)N2CCC2)oc2ccc(Cl)cc12,10%,-5,.,-0.6%,.,.,-4%[15.4 µM]
CCOC(=O)C1(CCOc2ccccc2)CCN(S(=O)(=O)N(C)C)CC1,4%,27,6%,.,-9,-4.1,-78%[inhibitor]
COc1ccc(N2C(=O)C3CCCN3C2c2cc(OC)c(OC)cc2OC)cc1 (stereo not given),8%,3,-11%,2.4%,.,3.6,16%
O=C(Oc1ccccc1)c1cc2ccccc2oc1=O,-13%,-17,13%,-3.2%,-6,8.8,-2%[15.4 µM]
CC(=O)N1CCN(c2ccc(NC(=O)c3ccc(Cl)c([N+](=O)[O-])c3)cc2)CC1,?,36,8%,0.7%,-14,2.6,16%
Cc1nn2c(=S)[nH]nc2[nH]c1=O,.,-7,13µM*,.,-1,-1.5,-27%[15.4 µM]
O=C(CSc1nc(NS(=O)(=O)c2ccccc2)cc(=O)[nH]1)Nc1cccc(C(F)(F)F)c1,16%,0,10%,.,-21,-8.2,-7%[15.4 µM]
Cc1ccc(C(=O)C(OC(=O)CN2C(=O)c3ccccc3C2=O)c2ccccc2)cc1 (stereo not given),10%,-11,1%,1.1%,-10,4.0,1%
O=C(NCc1ccc2c(c1)OCO2)c1ccc(S(=O)(=O)N2CCCCC2)cc1,1%,-5,24%,1.4%,-7,2.8,-4%
O=CNCCCc1nc2ccccc2n1Cc1ccccc1,13%,-10,20%,-3.3%,?,1.6,-4%
O=C(CSc1nc(-c2ccccc2)c(-c2ccccc2)[nH]1)N1CCN(S(=O)(=O)c2ccccc2)CC1,-20%,6,-4%,28µM*,4,-0.5,-1%
CC(C)c1nnc(NC(=O)CCC(=O)N2CCN(Cc3ccccc3)CC2)s1,-6%,19,11%,-3.0%,13,-1.2,-33%[inhibitor]
CCc1ccc2[nH]c(=O)c(C(c3nnnn3CC3CCCO3)N3CCN4CCCC4C3)cc2c1 (stereo not given),1%,1,35µM*,?,-5,0.8,-1%
O=C(CS(=O)c1ccccc1[N+](=O)[O-])Oc1ccc(Br)cc1 (stereo not given),-5%,20,-6%,.,-5,-0.6,?
Cc1ccc(C)c(-n2c(SCC(=O)O)nc3sc4c(c3c2=O)CCCC4)c1,-1%,-6,-3%,.,-2,-1.1,-3%[15.4 µM]
CC1=C(C(=O)N(C)C)CC(CC(=O)NCc2cccs2)C(=O)N1CCC1=CCCCC1 (stereo not given),.,4,.,-0.9%,.,.,20%
N#Cc1cnc(Nc2nc3ccccc3o2)nc1-c1ccccc1,18%,-12,11%,-3.5%,8,4.5,1%
Cc1[nH]c2ccccc2c1SCC(=O)N1CCCc2ccccc21,-12%,-3,5%,-0.5%,-7,0.7,-63%
COc1ccc(CNC(=O)Nc2cccc(Cl)c2)cc1,-3%,61,11%,0.9%,-2,.,-38%[inhibitor]
CCC(=O)Nc1c(-c2ccc(OC)cc2)c(=O)c2ccccc2n1C,3%,-4,7%,35µM*,-1,0.3,-3%
COc1cccc(CN(C)C(=O)c2ccc3c(=O)n4c(nc3c2)CCC4)c1,-8%,-4,.,-1.3%,5,.,-24%
CCC(C)Nc1nc(N)c([N+](=O)[O-])c(N2CCCCCC2)n1 (stereo not given),-3%,-8,-2%,-3.2%,-18,0.0,-2%[15.4 µM]
COc1ccc(Cl)c2c1[nH]c1nc(SCc3ccccn3)nnc12,-9%,-7,19%,.,1,-2.9,-11%[15.4 µM]
COc1ccc(C(=O)CN2CC(C)SC2=Nc2ccc(Cl)cc2)cc1 (stereo not given),-3%,50,-12%,-2.0%,22,13,9%[15.4 µM]
Cc1cc(C)n2nc(C(=O)OCC(=O)NCc3ccc(Cl)cc3)nc2n1,-8%,9,.,-0.4%,8,.,19%
C[C@@H]1C=CC(=O)O[C@@H]1c1ccc(C(F)(F)F)cc1,.,.,13%,.,-8,0.9,.
Cc1ccc(C(=O)NCC(=O)NCC(c2cccs2)N2CCOCC2)cc1 (stereo not given),13%,6,.,0.9%,-1,.,-24%
O=C(CNS(=O)(=O)c1cccc(F)c1)OCC(=O)N1CCCC1=O,-21%,34,.,-1.0%,-8,.,12%
CCOC(=O)CSc1nnc(CNC(=O)c2cccs2)n1-c1cc(C)ccc1C,-9%,24,10%,-1.2%,5,3.1,19%
COc1cc(/C=N/NC(N)=O)ccc1OCC(=O)Nc1cc(C)c(C)cc1Br,10%,7,-5%,1.6%,4,2.3,8%
O=C(OCC(=O)N1CCc2ccccc21)c1ccccc1[N+](=O)[O-],0%,-3,.,-4.0%,-3,.,0%
CC(=O)Nc1ccc(S(=O)(=O)NC2=NCN(C)CN2)cc1,11%,-5,9%,.,6,-0.3,24%
COc1ccccc1N1C(=O)CCC1(C#N)c1ccc(Br)cc1 (stereo not given),-4%,20,-11%,-2.2%,2,4.6,17%
COc1ccc(-c2nc3c([nH]2)c(=O)n(C)c(=O)n3C)c(OC)c1,8%,-6,19%,60%,11,-3.9,?
O=S(=O)(c1cccs1)N1CN(Cc2ccc(F)cc2)c2nc3ccccc3nc21,-15%,28,2%,-3.2%,23,5.2,20%
Cc1ccc(C)c(S(=O)(=O)N2CCC3(CC2)OCCO3)c1,-15%,30,11%,2.8%,2,.,2%
# Carrying on:
SMILES,gsp antag,TRPML1 blocker,Sfp PPTase inh,ClpP mod,TRPV1 potentiator,Menin-MLL FL inh,gsp agonist
Nc1nonc1-c1noc(CCCCCN2C(=O)c3ccccc3C2=O)n1,-24%,12,-21%,1.5%,-5,1.1,-73%[inhibitor]
O=C(CSc1nc2ccc([N+](=O)[O-])cc2s1)NC1CCS(=O)(=O)C1 (stereo not given),-1%,12,-4%,.,?,-4.0,2%[15.4 µM]
CS(=O)(=O)c1ccccc1COC(=O)Nc1ccc(Cl)cc1,-6%,24,5%,-1.3%,-10,2.5,0%
O=C1CCC([N+](=O)[O-])C(c2ccccc2Br)N1 (stereo not given),3%,-4,16%,0.8%,10,-0.9,2%
CCOc1ccc(CCNC(=O)CN2C(=O)NC3(CCCCC3)C2=O)cc1OCC,13%,6,.,2.1%,2,.,-17%
CCCC(=O)c1cc2c(cc1NC(=O)c1cccs1)OCCO2,-12%,2,5%,41%,-8,29,2%
Cc1ccc(NC(=O)CCNC(=O)c2ccc(Br)cc2)cc1S(=O)(=O)N1CCOCC1,-9%,21,.,-0.8%,23,.,-28%
